# Bioassay records: PubChem BioAssay, Johns Hopkins Ion Channel Center
# KCNQ2 block = KCNQ2 potassium channel inhibitors, primary screen, cell-based, CHO-K1, FluxOR thallium flux, B-score (AID 2156); O88943; 20 min; active compounds read low; only compounds with negative scores are shown here; some inactives read as strong as hits; B-score at 10 µM; 310,000 compounds, 1.1% hits;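 active = fluorescence ratio B-score at most minus 3 library SDs, with starting brightness B-score within 2 library SDs, cut at about -5.5 in these data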
# Target sequence (O88943 whole entry, looked up): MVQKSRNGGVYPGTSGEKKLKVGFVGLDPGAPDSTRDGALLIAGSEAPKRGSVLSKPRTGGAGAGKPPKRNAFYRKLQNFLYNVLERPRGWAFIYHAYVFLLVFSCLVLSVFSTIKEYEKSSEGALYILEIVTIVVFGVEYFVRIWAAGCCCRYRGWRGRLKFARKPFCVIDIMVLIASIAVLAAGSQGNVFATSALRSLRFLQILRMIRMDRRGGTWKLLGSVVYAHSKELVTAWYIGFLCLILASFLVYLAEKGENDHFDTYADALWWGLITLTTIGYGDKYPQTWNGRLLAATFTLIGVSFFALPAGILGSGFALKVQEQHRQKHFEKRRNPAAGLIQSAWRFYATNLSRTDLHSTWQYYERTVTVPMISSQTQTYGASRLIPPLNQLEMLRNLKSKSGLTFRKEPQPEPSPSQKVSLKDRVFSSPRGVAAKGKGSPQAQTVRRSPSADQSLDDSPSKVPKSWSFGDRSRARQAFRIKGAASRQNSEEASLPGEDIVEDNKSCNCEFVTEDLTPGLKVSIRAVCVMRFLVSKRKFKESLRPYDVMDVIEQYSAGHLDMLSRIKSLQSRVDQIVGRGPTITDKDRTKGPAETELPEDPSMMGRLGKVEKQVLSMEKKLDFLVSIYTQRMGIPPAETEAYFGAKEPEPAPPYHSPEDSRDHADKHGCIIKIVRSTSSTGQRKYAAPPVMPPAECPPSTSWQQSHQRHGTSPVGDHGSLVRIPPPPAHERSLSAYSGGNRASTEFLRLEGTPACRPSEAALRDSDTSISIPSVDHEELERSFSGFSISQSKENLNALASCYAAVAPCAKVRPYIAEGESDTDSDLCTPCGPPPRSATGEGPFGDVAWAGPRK
# KCNQ2 block baseline = recorded beside KCNQ2 block, whose call it bears; B-score; measured here: initial fluorescence intensity artifact check;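 brightness before thallium and not channel activity; 0 = typical well and far values either way flag optical interference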
# The depositor's hits bear a star; i = inactive. Only part of the results is shown (hit frequency here may not be typical).
# Values in the order: KCNQ2 block	KCNQ2 block baseline
> CCc1c(C)[nH]c2c(C)cccc2c1=O
 : i	-1.71
> COc1ccc(S(=O)(=O)NCC(=O)N(CC(=O)NCC2CCCO2)c2ccccc2C)cc1 (stereo not drawn)
 : i	0.21
> O=C(NC1CCCCC1)C(c1cccs1)N(C(=O)c1ccco1)c1ccc2c(c1)OCCO2 (stereo not drawn)
 : i	-1.62
> O=C(/C=C/c1ccc(Cl)cc1Cl)NCCSCc1ccccc1
 : i	0.94
> Cc1ccc(NC(=O)CN2C(=O)c3ccccc3C2=O)nc1
 : i	-0.18
> CN1c2ccccc2-c2nc3ccccc3n2C1c1ccco1 (stereo not drawn)
 : i	0.91
> Cc1ccc(-c2[nH]c(-c3ccccc3)nc2SCC(=O)NCC2CCCO2)cc1 (stereo not drawn)
 : i	-2.06
> O=C(NNC(=O)c1cccs1)c1ccc([N+](=O)[O-])cc1
 : i	-1.5
> COc1cc(C=C(c2nc3ccccc3s2)c2nc3ccccc3s2)cc(OC)c1O
 : i	-1.28
> Cc1ccc(C(=O)Nc2ccc(NC(=O)c3cccs3)cc2)c(C)c1
 : i	2.34
> CC1CCN(S(=O)(=O)c2ccc(S(=O)(=O)NCC(=O)C(C)(C)C)cc2)CC1
 : i	1.28
> Cc1nc2c3ccccc3n(Cc3ccccc3F)c2s1
 : i	-1.23
> CCCCC(C(=O)O)C(C)CC(=O)NNC(=O)c1ccco1 (stereo not drawn)
 : i	0.49
> CC(O)(CS(=O)(=O)Cc1ccccc1)c1ccccc1Cl (stereo not drawn)
 : i	-0.03
> CCc1cc(CNC(=O)CC2C(=O)NCCN2Cc2cccc(OC)c2)on1 (stereo not drawn)
 : i	1.5
> CC1(C)Cc2c(c(N3CCCC3)nc3sc4c(N5CCNCC5)ncnc4c23)CO1
 : i	1.69
> CC1CCCN(C(=O)c2ccc(-c3ccccc3Cl)o2)C1 (stereo not drawn)
 : -7.4*	1.04*
> Cc1cc(=O)oc2cc(OCC(=O)N3CC(C)OC(C)C3)ccc12 (stereo not drawn)
 : i	-0.26
> CCc1ccccc1NC(=O)Nc1cccn(Cc2ccccc2F)c1=O
 : i	-2.3
> CC(C)CCNC(=O)CSc1nc2ccccc2c(=O)[nH]1
 : i	-0.04
> CCC(CC)c1nnc(NC(=O)c2ccc(N3CCCCC3)c([N+](=O)[O-])c2)s1
 : i	-0.16
> O=C1NC(=O)[C@@H]2C3c4ccccc4C=CN3[C@H](C(=O)c3cccs3)[C@H]12 (stereo partly drawn)
 : i	0.75
> COc1ccc(/C(N)=N/OC(=O)CSc2ccc(C)cc2)cc1
 : i	-0.45
> O=S1(=O)CCN(Cc2ccc(Cl)c(C(F)(F)F)c2)CC1
 : i	-0.06
> CC(=O)c1cccc(NC(=O)C2CC(=O)N(c3cccc(C)c3C)C2)c1 (stereo not drawn)
 : i	0.68
> O=Cc1sc([O-])nc1-[n+]1ccc2ccccc2c1
 : i	-0.4
> COc1ccc(NC(=O)CCCNC(=O)c2ccc(Cl)cc2)c(OC)c1
 : i	-0.58
> CCOc1ccc(Nc2nnc(Cc3ccc(OC)cc3)c(=O)[nH]2)cc1
 : i	-0.55
> CCN1CCN(S(=O)(=O)c2ccc(C(=O)Nc3ccccc3)cc2)CC1
 : i	-1.07
> O=C(C1=C(O)C(=O)N(CCN2CCOCC2)C1c1ccc(Br)cc1)c1cc2ccccc2o1 (stereo not drawn)
 : i	0.32
> O=c1cc(O)c(-c2cccc(Cl)c2)c(Cl)[nH]1
 : i	1.98
> Fc1ccc(N/N=C(/c2ccccc2)c2ccccn2)cc1
 : i	-1.27
> CC1=CC(C)(C)N2C(=O)C3(C(C#N)=C(N)Oc4cc(O)ccc43)c3c(C)c(C)cc1c32 (stereo not drawn)
 : i	0.23
> c1ccc2sc(NC3=NCN(CCN4CCOCC4)CN3)nc2c1
 : i	1.36
> CC(=C1C(=O)c2ccccc2C1=O)N1CCN(c2ccccn2)CC1
 : i	0.59
> CCOc1ccccc1NC(=O)COC(=O)c1cccc(-c2ccc(OC(C)=O)cc2)c1
 : i	-0.77
> CC1CN(C(=S)SCCN2Cc3ccccc3C2=O)CC(C)O1 (stereo not drawn)
 : i	0.05
> COc1ccc(O)c(C2=Nc3ccccc3N=C(c3ccco3)C2)c1
 : i	-2.15
> CCn1c(C)c(C)c2cc(C(=O)Nc3cccc(Cl)c3)ccc21
 : -6.57*	0.73*
> Cc1ccc(S(=O)(=O)N2CCOC2CNC(=O)C(=O)NCCCc2ccccc2)cc1 (stereo not drawn)
 : i	1.08
> Cc1cc(C)cc(OCC(=O)OCC(=O)c2c(N)n(C)c(=O)n(C)c2=O)c1
 : i	0.48
> CC(=O)NC(CC(=O)Nc1nc(-c2ccc(N(C)S(C)(=O)=O)cc2)cs1)c1ccccc1 (stereo not drawn)
 : i	-1.67
> CCN(CC(=O)Nc1ccccc1OC)C(=O)COc1ccc2ccccc2c1
 : i	0.07
> CCCc1nnc(NC(=O)CSc2ncn[nH]2)s1
 : i	0.24
> CC(=N)C1=C(O)CC(c2ccccc2)CC1=O (stereo not drawn)
 : i	-0.84
> CCCCN(Cc1cc2ccccc2[nH]c1=O)C(=O)c1ccccn1
 : i	-2.2
> Cc1c(OCC(=O)Nc2cccnc2)ccc2c3c(c(=O)oc12)CCC3
 : i	0.13
> COCCNC(=O)/C(C#N)=C/c1ccc(OC(=O)c2cccs2)c(OC)c1
 : i	-3.58
> N=c1c(C(=O)NCC2CCCO2)cc2c(=O)n3ccccc3nc2n1Cc1ccc(Cl)cc1 (stereo not drawn)
 : i	-0.48
> O=C(Cn1cccc1)N1CCc2ccccc21
 : i	0.02
> CCC(C)(C)NC(=O)CN(Cc1cccs1)C(=O)CNS(=O)(=O)c1ccc(C)cc1
 : i	1.1
> c1ccc(C[C@H]2CNCCN2CCCCC2CCCCC2)cc1
 : i	-1.84
> CCCNC(=O)Nc1cc(S(=O)(=O)CC)ccc1O
 : i	0.13
> O=C(COC(=O)c1nc(Cl)ccc1Cl)NCc1cccs1
 : i	0.01
> Cc1cc(CNC(=O)CC2C(=O)NCCN2Cc2ccccc2C(F)(F)F)nn1C (stereo not drawn)
 : i	1.39
> CCOC(=O)C1CCN(Cc2cnc(Oc3ccc(OC)cc3)s2)CC1
 : i	0.33
> COc1ccc(Cl)cc1NC(=O)CCN1CCOCC1
 : i	0.45
> CCCCN(C(=O)c1cccc(-n2cccc2)c1)c1c(N)n(Cc2ccccc2)c(=O)[nH]c1=O
 : i	-1.39
> Cc1cc(C)c(NC(=O)Cn2c(=O)c3cccn3c3ccccc32)c(C)c1
 : i	0.48
> CC1(C)CC(=O)CC(=O)/C1=N\Nc1c(Cl)cc(Cl)cc1Cl
 : i	0.18

# Filtered by structure, those above containing an NH in an aromatic ring.
# Values in the order: KCNQ2 block	KCNQ2 block baseline
> CCc1c(C)[nH]c2c(C)cccc2c1=O
 : i	-1.71
> Cc1ccc(-c2[nH]c(-c3ccccc3)nc2SCC(=O)NCC2CCCO2)cc1 (stereo not drawn)
 : i	-2.06
> CC(C)CCNC(=O)CSc1nc2ccccc2c(=O)[nH]1
 : i	-0.04
> CCOc1ccc(Nc2nnc(Cc3ccc(OC)cc3)c(=O)[nH]2)cc1
 : i	-0.55
> O=c1cc(O)c(-c2cccc(Cl)c2)c(Cl)[nH]1
 : i	1.98
> CCCc1nnc(NC(=O)CSc2ncn[nH]2)s1
 : i	0.24
> CCCCN(Cc1cc2ccccc2[nH]c1=O)C(=O)c1ccccn1
 : i	-2.2
> CCCCN(C(=O)c1cccc(-n2cccc2)c1)c1c(N)n(Cc2ccccc2)c(=O)[nH]c1=O
 : i	-1.39

# The results go on.
# Values in the order: KCNQ2 block	KCNQ2 block baseline
> CC(C)CN(CC(C)C)C(=O)COc1ccccc1C(N)=O
 : i	0.03
> Cc1ccc(C)c(N(C(=O)Cn2nnc3ccccc32)C(C(=O)NC(C)(C)C)c2ccsc2)c1 (stereo not drawn)
 : i	-0.05
> CCCCC(=O)NC(=S)Nc1c(C)cc(Br)cc1C
 : i	2.44
> CNC(CC(C)C)C(=O)NC1C(=O)NC(CC(N)=O)C(=O)NC2C(=O)NC3C(=O)NC(C(=O)NC(C(=O)O)c4cc(O)cc(O)c4-c4cc3ccc4O)C(O)c3ccc(c(Cl)c3)Oc3cc2cc(c3OC2OC(CO)C(O)C(O)C2OC2CC(C)(N)C(O)C(C)O2)Oc2ccc(cc2Cl)C1O (stereo not drawn)
 : i	-0.33
> c1ccc(N2CCN(c3nc(-c4ccccn4)nc4ccccc34)CC2)cc1
 : i	0.22
> CS(=O)(=O)N(CC(=O)Nc1ccc2c(c1)OCCO2)Cc1ccccc1
 : i	0.04
> COc1cc(/C=N/OCC(=O)NC2CCCCC2C)ccc1OCc1ccc(Cl)cc1 (stereo not drawn)
 : i	1.76
> Cc1cc2c(c(=O)o1)C(CC(C)C)C(C#N)=C(N)O2 (stereo not drawn)
 : i	0.27
> Nc1c(N(CCO)C(=O)C2CCCCC2)c(=O)[nH]c(=O)n1Cc1ccccc1
 : i	1.76
> O=C(CNC(=O)c1ccco1)Nc1ccc(Br)cc1
 : i	1.09
> O=C(COC(=O)CNC(=O)c1ccc(Cl)c([N+](=O)[O-])c1)NNC(=O)c1cccs1
 : i	3.72
> Cc1cc(C)c(S(C)(=O)=O)c(N(C)NC(=O)c2c(F)cccc2F)n1
 : i	-0.31
> CCOc1cc(/C=N/NC(=O)c2cccnc2)ccc1OCC(N)=O
 : i	1.43
> CC(=O)c1cccc(NC(=O)N2CCC(c3ccc(C)cc3)C2)c1 (stereo not drawn)
 : i	0.65
> Cc1ccc(C(=O)N/N=C/c2cc(Br)ccc2O)cn1
 : i	0.08
> Cc1cc(C)c2[nH]c(=O)c(C(c3nnnn3CC3CCCO3)N3CCCC(C)C3)cc2c1 (stereo not drawn)
 : -5.61*	0.13*
> COc1ccc(CCNC(=O)CNCC2CCCO2)cc1OC (stereo not drawn)
 : i	1.47
> COc1ccc(NC(=O)Nc2cccc(C(F)(F)F)c2)cn1
 : i	0.02
> CCN(CC)c1ccc2c(Cl)cc(=O)oc2c1
 : i	1.79
> Cc1ccnc(NC(=O)c2ccc(S(=O)(=O)N3CCC(C)CC3)cc2)c1
 : i	0.16

# Record cards (already shown). Order of values: KCNQ2 block, KCNQ2 block baseline
# c1ccc(N2CCN(c3nc(-c4ccccn4)nc4ccccc34)CC2)cc1 is entered as i, 0.22
# O=C(COC(=O)CNC(=O)c1ccc(Cl)c([N+](=O)[O-])c1)NNC(=O)c1cccs1 is entered as i, 3.72

# Next section
# Values in the order: KCNQ2 block	KCNQ2 block baseline
> CC1C=CCC2C(=O)N(c3ccc(OC(=O)c4ccco4)cc3)C(=O)C12 (stereo not drawn)
 : i	1.37
> Cn1nc([N+](=O)[O-])c(C(C#N)c2ccccn2)c(Cl)c1=O (stereo not drawn)
 : -5.79*	-2.45*
> Cc1csc(=Nc2ccccc2)n1CCCN1CCCC1=O
 : i	-0.05
> COc1ccc(-c2cc(C(F)(F)F)c3c(n2)sc2c(O)cc(=O)[nH]c23)c(OC)c1
 : i	0.08
> Cc1cc(NC(=O)CSC2=NS(=O)(=O)c3cc(F)ccc3N2)no1
 : i	-0.61
> Cc1ccc(-c2nnn(CC(=O)N(CC(=O)NCC3CCCO3)c3ccccc3)n2)o1 (stereo not drawn)
 : i	-0.69
> COCC(=O)OCC(=O)Nc1cc(C)c(C)cc1[N+](=O)[O-]
 : i	1.15
> CCC(C)(CC(=O)N(C)CCC#N)c1ccccc1 (stereo not drawn)
 : i	0.22
> N#CC1=C(SCc2ccccc2)NC2=C(C(=O)CCC2)C1c1ccc2c(c1)OCO2 (stereo not drawn)
 : i	-0.11
> O=C(NNC(=S)Nc1ccccc1)NNC(=S)Nc1ccccc1
 : i	1.46
> CCCCNC(=O)N(O)C1N(/N=C/c2ccc(N(C)C)cc2)C(=S)SC1(C)C (stereo not drawn)
 : i	-0.66
> CC(C)(C)n1nnnc1C(c1cccs1)N(Cc1ccc(Cl)cc1)CC1CCCO1 (stereo not drawn)
 : -9.93*	-2.41*
> Cc1ccc(Cl)cc1NC(=O)Nc1c(C)n(C)n(-c2ccccc2)c1=O
 : i	0.01
> O=[N+]([O-])c1ccccc1S(=O)(=O)n1cnc2ccccc21
 : i	2
> CC(=O)c1c(C)[nH]c(C(=O)OC(C)C(=O)Nc2cc(S(=O)(=O)N3CCCCC3)ccc2Cl)c1C (stereo not drawn)
 : i	0.67
> CN1CCCC1CCNS(=O)(=O)c1ccc(Br)cc1 (stereo not drawn)
 : i	0.81
> CC(C)CCN=CC1=C(O)CC(c2ccccc2)CC1=O (stereo not drawn)
 : i	0.13
> COc1ccc(N2CCN(C(CNS(=O)(=O)c3cccs3)c3cccnc3)CC2)cc1 (stereo not drawn)
 : i	-0.38
> CCSc1ccccc1C(=O)NCc1cccnc1
 : i	1.47
> O=C(CN(CCO)c1ccccc1)NC12CC3CC(CC(C3)C1)C2
 : i	0.17
> CCOc1ccc(C/C(N)=N/n2cnnc2)cc1
 : i	-1.8
> COC(=O)CCC(=O)N(C)CC1CCCN(CCc2cccc(C(F)(F)F)c2)C1 (stereo not drawn)
 : i	0.6
> COC(=O)c1ccc(S(=O)(=O)NCc2ccco2)o1
 : i	-1.12
> COc1ccc(C(=O)n2c(SC)nc3cc4c(cc32)OCCO4)cc1
 : i	-0.52
> O=C(NNC(=O)c1ccc(F)cc1)c1ccncc1
 : i	-1.77
> Cc1cccc(C(=O)OC(C)C(=O)Nc2ccc(S(=O)(=O)N3CCCC3)cc2)c1O (stereo not drawn)
 : i	1.08
> CCOC(=O)c1[nH]c(C)c(CN(Cc2ccco2)C(=O)C(F)(F)F)c1C
 : i	2.3
> O=C(CCc1nc2ccccc2c(=O)[nH]1)OCC(=O)N1CCc2ccccc21
 : i	0.55
> Cc1cc(C)c(NS(=O)(=O)c2ccc(NC(=O)CCC(=O)O)cc2)c(C)c1
 : i	0.26
> CC(C)C(CO)NC(=O)CC(=O)NC(CO)C(C)C (stereo not drawn)
 : i	-1.4
> COc1ccc(-c2coc3cc(OC)cc(OC)c3c2=O)cc1
 : i	-1.08
